PMP22 txn = modulators of PMP22 gene transcription in S16 Schwann cells. Potency, µM (doses to about 57.5 µM), without a hit: top-dose activity change, negative = inhibition, hits mostly inhibitors. S16 Pmp22-F2sN Schwann cells (luciferase reporters placed in the Pmp22 gene), FLuc/NLuc coincidence luminescence, 24 h. actives 2% (n = 43,000); active = clear falling dose curves in both reporters; inconclusive = both reporters move, but less clearly or upward; inactive = either reporter flat; the % is the NLuc reporter signal; also: % is scaled to controls: 0 for no effect and ±100 for the full control effect; some results filed as inactive show a strong effect at the top dose
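Rat S16 Pmp22-F2sN cells, 500-1,000/well in phenol red-free DMEM + 10% FBS, compound-treated 24 h (37C, 5% CO2). Luminescence: FLuc read, Stop&Glo added, NLuc read.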
HTT promoter inh = inhibitors of huntingtin promoter activity; HEK293 HTT promoter firefly luciferase reporter (activity 0% = vehicle and -100% = no light), 24 h; Potency, µM (highest dose often 57.5 µM), without a hit: at the top dose activity change, negative = inhibition, most hits filed as inhibitors; actives 0.93% (n = 48,000); active = well fitted inhibition curve with a large enough effect; inconclusive = small, poorly fitted or top-dose-only effect; inactive = no such curve, though single readings can be large or run the other way; also: nearly all actives have a fitted effect of over 50% in size
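Firefly luciferase signal from promoter-reporter HEK293 cells was scaled between vehicle (0%) and zero RLU (-100%). Compounds were tested at final concentrations of up to 57.5 uM over 24 h at 37 degrees C. PTC124 at 50 uM final served as control inhibitor.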
Active calls of the source: *; ? = inconclusive; nt = not tested or not shown; & = joins results of further samples; [ ] = another dose, or the depositor's remark. Potency is read from the fitted curve at half-maximal effect.

[1] O=C(c1cc2c(Cl)nc3ccccc3c2s1)N1CCCCC1
  PMP22 txn: -70%; HTT promoter inh: 3%

[2] COc1ccc(OC)c(CNC(=O)c2ccc3nc(C(C)C)oc3c2)c1
  PMP22 txn: 2%; HTT promoter inh: -12%

[3] Cc1cc(C)c(NC(=O)C(=O)NCC(c2cccnc2)N2CCN(c3ccccc3F)CC2)c(C)c1 (stereo not drawn)
  PMP22 txn: ?; HTT promoter inh: ?

[4] CC1=C(C(=O)Nc2ccc(F)cc2)C(c2ccc(N(C)C)cc2)NC(=O)N1 (stereo not drawn)
  PMP22 txn: ?; HTT promoter inh: -11%

[5] COc1ccc(NC(=O)Cn2c(=O)n(-c3ccccc3)c(=O)c3c4c(sc32)CCCC4)cc1
  PMP22 txn: 0%; HTT promoter inh: -9%

[6] CN(C)CCCNc1cc(N2CCN(C3CCCCC3)CC2)c2noc3c2c1C(=O)c1ccccc1-3
  PMP22 txn: ?; HTT promoter inh: -3%

[7] O=c1[nH]c(=O)n([C@H]2C[C@@H](O)[C@@H](CO)O2)cc1C=CBr
  PMP22 txn: nt; HTT promoter inh: -2%

[8] COc1ccc(S(=O)(=O)c2cnc3ccc(Cl)cc3c2N2CCCCC2C)cc1 (stereo not drawn)
  PMP22 txn: ?; HTT promoter inh: ?

[9] COc1ccc(CNC(=O)c2c(O)nc3cc(C)ccn3c2=O)cc1
  PMP22 txn: 15%; HTT promoter inh: -4%

[10] Cc1ccc(C2NC(=O)c3n[nH]c(-c4cccs4)c32)cc1 (stereo not drawn)
  PMP22 txn: -3%; HTT promoter inh: -16%

[11] CCc1cccc(C)c1NC(=O)CCn1c(=O)c2cccn2c2ccccc21
  PMP22 txn: ?; HTT promoter inh: 1%

[12] CN1CC(=O)N(CC(=O)Nc2ccc(Cl)c(C(F)(F)F)c2)c2ccccc2C1=O
  PMP22 txn: -10%; HTT promoter inh: ?

[13] Cc1c(C2=CCN(S(=O)(=O)c3cccc(Cl)c3)CC2)c2ccccc2n1CC(=O)N1CCCC1
  PMP22 txn: ?; HTT promoter inh: -42%

[14] O=c1c2cn[nH]c2nc(SCc2c(F)cccc2F)n1-c1ccc(Cl)cc1
  PMP22 txn: 5%; HTT promoter inh: -12%

[15] Cc1ccc(NC(=O)Cn2cc(C(=O)C3CC3)c3ccccc32)cc1C
  PMP22 txn: -9%; HTT promoter inh: 4%

[16] CCn1cc2nc(SCc3ccccc3)n(Cc3ccc(C)cc3)c(=O)c2n1
  PMP22 txn: ?; HTT promoter inh: -12%

[17] CCC1CCCCN1CCCNC(=O)c1[nH]c2ccccc2c1Sc1ccc(Cl)cc1 (stereo not drawn)
  PMP22 txn: ?; HTT promoter inh: -27%

[18] Cc1ccc(NC(=O)C2CCN(S(=O)(=O)c3c(C)noc3C)CC2)c(C)c1
  PMP22 txn: -9%; HTT promoter inh: -9%

[19] Cc1cc(C)c2sc(NC(=O)c3ccc(S(=O)(=O)N4CCCC4)cc3)nc2c1
  PMP22 txn: ?; HTT promoter inh: -15%

[20] Cc1cccc(NC(=O)Nc2nnc(N(C)C3CCCCC3)s2)c1C
  PMP22 txn: 11%; HTT promoter inh: -12%

[21] CCn1c(CNC(=O)C23CC4CC(CC(C4)C2)C3)nnc1SCC(=O)Nc1ccc(C)cc1
  PMP22 txn: ?; HTT promoter inh: -32%

[22] CC(=O)N1CCCc2cc(S(=O)(=O)N3CCCC(C(=O)N4CCN(c5cccc(Cl)c5)CC4)C3)ccc21 (stereo not drawn)
  PMP22 txn: 10µM*; HTT promoter inh: 7.1µM*

[23] CSc1nc(Nc2cccc(C)c2)c(C#N)c(-c2ccccc2)n1
  PMP22 txn: -13%; HTT promoter inh: -4%

[24] O=[N+]([O-])c1cc(-c2nc(-c3ccccc3)no2)ccc1NCc1ccco1
  PMP22 txn: ?; HTT promoter inh: 49%[activator]

[25] COc1ccc(-n2c(CC3C(=O)Nc4ccc(C)cc43)nc3ccccc3c2=O)cc1 (stereo not drawn)
  PMP22 txn: -4%; HTT promoter inh: -5%

Results in sequence from above:
PMP22 txn, nos. 7 to 16, in order: nt, ?, 15%, -3%, ?, -10%, ?, 5%, -9%, ?
HTT promoter inh, nos. 7 to 16, in order: -2%, ?, -4%, -16%, 1%, ?, -42%, -12%, 4%, -12%

Next part.
[26] NCCCCCc1nnc(SCc2ccc(F)cc2)o1
  PMP22 txn: 11%; HTT promoter inh: -30%

[27] N#Cc1ccc(OC(=O)c2cc(-c3ccc(Cl)cc3)on2)cc1
  PMP22 txn: -13%; HTT promoter inh: 4%

[28] O=C(CCC(=O)N1CC2CCCN2c2ccccc21)NCc1ccccc1Cl (stereo not drawn)
  PMP22 txn: ?; HTT promoter inh: -26%

[29] CCOc1ccc(C(=O)N2CCC(c3noc(-c4ccc(S(=O)(=O)N5CCCC5)cc4)n3)CC2)cc1
  PMP22 txn: ?; HTT promoter inh: ?

[30] O=C(Nc1ccc(OCc2cc(=O)n3c4c(sc3n2)CCCC4)cc1)c1cccc(F)c1
  PMP22 txn: -6%; HTT promoter inh: -15%

[31] COc1cc(Nc2nc(SCC(=O)c3ccc(Br)cc3)nc3ccccc23)cc(OC)c1
  PMP22 txn: ?; HTT promoter inh: ?

[32] O=C(COc1ccccc1Cl)Nc1nc(-c2ccc(F)cc2)ns1
  PMP22 txn: -42%; HTT promoter inh: -1%

[33] CCOC(=O)c1cc(-c2ccccc2)n(CCC(=O)NCCc2ccc(C)cc2)c1C
  PMP22 txn: 5%; HTT promoter inh: ?

[34] CCOc1ccccc1C(=O)NC1(C(F)(F)F)C(=O)Nc2c1c(=O)[nH]c(=O)n2-c1ccccc1 (stereo not drawn)
  PMP22 txn: ?; HTT promoter inh: -14%

[35] COc1cc(OC)cc(-c2nnc(SCC(=O)N3CCC(C)CC3)o2)c1
  PMP22 txn: -5%; HTT promoter inh: -24%

[36] CC1=C(C(=O)Nc2cc3cn[nH]c3cc2F)C(c2ccc(Cl)cc2F)N=C(c2ccnc(Cl)c2)N1 (stereo not drawn)
  PMP22 txn: nt; HTT promoter inh: -25%

[37] Cc1c(Cl)cccc1NC(=O)Nc1nnc(N(C)Cc2ccccc2)s1
  PMP22 txn: ?; HTT promoter inh: -6%

[38] CC(C)COc1ccc(C(=O)N2CCN(CCc3ccncc3)CC2)cc1
  PMP22 txn: -12%; HTT promoter inh: ?

[39] COc1cccc(NC(=O)N(CCC(C)C)C2CCN(C(C)C)CC2)c1
  PMP22 txn: -3%; HTT promoter inh: -10%

[40] CCOc1ccc(-n2c(SCC(=O)N3CCCc4ccccc43)nc3c([nH]c4ccccc43)c2=O)cc1
  PMP22 txn: ?; HTT promoter inh: -6%

[41] Cc1ccc(C)c(N2CCN(C(=O)C3CCCN(S(=O)(=O)c4ccc5c(c4)oc(=O)n5C)C3)CC2)c1 (stereo not drawn)
  PMP22 txn: 15µM*; HTT promoter inh: ?

[42] COc1ccc(-c2cc(C(C)=O)c(C)n2CCC(=O)Nc2ccc(C)c(Cl)c2)cc1
  PMP22 txn: -7%; HTT promoter inh: ?

[43] Cc1coc2cc3oc(=O)c(CC(=O)NCc4ccccc4)c(C)c3cc12
  PMP22 txn: -31%; HTT promoter inh: -6%

[44] CC1CCCN(Cc2c(O)ccc3c(=O)c(Oc4ccccc4Cl)c(C(F)(F)F)oc23)C1 (stereo not drawn)
  PMP22 txn: -11%; HTT promoter inh: -21%

[45] COc1ccc(C2CC(=O)c3cc(-c4nc(-c5cccc([N+](=O)[O-])c5)cs4)c(=O)n(-c4cc(C)cc(C)c4)c3C2)cc1 (stereo not drawn)
  PMP22 txn: 11%; HTT promoter inh: 0%

[46] Cc1ccc(-n2c(=O)c3ccc(C(=O)NCc4ccco4)cc3n(Cc3ccccc3C#N)c2=O)cc1
  PMP22 txn: ?; HTT promoter inh: -1%

[47] Cc1cccc(N2CCN(C(=O)Cn3nc(Cc4cccnc4)c4ccccc4c3=O)CC2)c1C
  PMP22 txn: ?; HTT promoter inh: ?

[48] Cc1ccc(C)c(NC(=O)CN(CCc2ccccc2)S(=O)(=O)c2ccccc2)c1
  PMP22 txn: -11%; HTT promoter inh: ?

[49] CC1CCCCN1C(=O)c1ccc2c(c1)N(Cc1ccc(F)cc1)C(=O)c1ccccc1S2(=O)=O (stereo not drawn)
  PMP22 txn: -13%; HTT promoter inh: -18%

[50] Cc1cccc(S(=O)(=O)c2cn(Cc3ccccc3)c3cc(N4CCOCC4)c(F)cc3c2=O)c1
  PMP22 txn: -17%; HTT promoter inh: -20%

Part of the list above, with one line to a screen.
12	CN1CC(=O)N(CC(=O)Nc2ccc(Cl)c(C(F)(F)F)c2)c2ccccc2C1=O
13	Cc1c(C2=CCN(S(=O)(=O)c3cccc(Cl)c3)CC2)c2ccccc2n1CC(=O)N1CCCC1
14	O=c1c2cn[nH]c2nc(SCc2c(F)cccc2F)n1-c1ccc(Cl)cc1
15	Cc1ccc(NC(=O)Cn2cc(C(=O)C3CC3)c3ccccc32)cc1C
screen / no. | 12 | 13 | 14 | 15
PMP22 txn | -10% | ? | 5% | -9%
HTT promoter inh | ? | -42% | -12% | 4%

Already shown: entries from further up.
[45] COc1ccc(C2CC(=O)c3cc(-c4nc(-c5cccc([N+](=O)[O-])c5)cs4)c(=O)n(-c4cc(C)cc(C)c4)c3C2)cc1 (stereo not drawn)
  PMP22 txn: 11%; HTT promoter inh: 0%

[46] Cc1ccc(-n2c(=O)c3ccc(C(=O)NCc4ccco4)cc3n(Cc3ccccc3C#N)c2=O)cc1
  PMP22 txn: ?; HTT promoter inh: -1%

[47] Cc1cccc(N2CCN(C(=O)Cn3nc(Cc4cccnc4)c4ccccc4c3=O)CC2)c1C
  PMP22 txn: ?; HTT promoter inh: ?

[48] Cc1ccc(C)c(NC(=O)CN(CCc2ccccc2)S(=O)(=O)c2ccccc2)c1
  PMP22 txn: -11%; HTT promoter inh: ?

[49] CC1CCCCN1C(=O)c1ccc2c(c1)N(Cc1ccc(F)cc1)C(=O)c1ccccc1S2(=O)=O (stereo not drawn)
  PMP22 txn: -13%; HTT promoter inh: -18%

[50] Cc1cccc(S(=O)(=O)c2cn(Cc3ccccc3)c3cc(N4CCOCC4)c(F)cc3c2=O)c1
  PMP22 txn: -17%; HTT promoter inh: -20%

Remaining list, next part:
[51] CCCCN1C(=O)C(NC(=O)c2ccc(C(C)(C)C)cc2)(C(F)(F)F)C(C(=O)OC)=C1C (stereo not drawn)
  PMP22 txn: -15%; HTT promoter inh: ?

[52] O=C(Cn1c(=O)nc(-c2ccccc2)c2cc(Cl)ccc21)Nc1ccc(F)c(Cl)c1
  PMP22 txn: ?; HTT promoter inh: -15%

[53] NS(=O)(=O)c1ccc(CCNC(=O)CCn2c(=O)c3cccn3c3cccnc32)cc1
  PMP22 txn: 0%; HTT promoter inh: -4%

[54] COc1ccccc1Nc1ncc2c(n1)CCN(CC(C)C)C2
  PMP22 txn: -13%; HTT promoter inh: 29%

[55] CC(C)NC(=O)CSc1nc2ccccc2nc1N1CCCCC1
  PMP22 txn: 3%; HTT promoter inh: -11%

[56] CC1CCCCN1C(=O)CSc1nnc(-c2ccccc2Cl)o1 (stereo not drawn)
  PMP22 txn: 5%; HTT promoter inh: 10%

[57] CCOC(=O)c1c(NC(=O)COc2cc(C)ccc2C(C)C)sc(C)c1C
  PMP22 txn: 13%; HTT promoter inh: -4%

[58] Cn1c(=O)c2c(ncn2CC(O)CO)n(C)c1=O (stereo not drawn)
  PMP22 txn: nt; HTT promoter inh: 15%&0%

[59] CCOC(=O)c1c(S(=O)(=O)NCC(=O)NCc2ccc(C)cc2)c(C)n(C)c1C
  PMP22 txn: -33%; HTT promoter inh: 8%

[60] CCC1=Nc2cc(C(=O)NCCc3ccc(OC)c(OC)c3)ccc2Sc2ccccc21
  PMP22 txn: ?; HTT promoter inh: ?

[61] Cc1cccc(NC(=O)N2CCC(CN3CCC(C)CC3)CC2)c1C
  PMP22 txn: ?; HTT promoter inh: -10%

Two records picked at random from the list so far, as already listed:
[59] CCOC(=O)c1c(S(=O)(=O)NCC(=O)NCc2ccc(C)cc2)c(C)n(C)c1C
  PMP22 txn: -33%; HTT promoter inh: 8%

[51] CCCCN1C(=O)C(NC(=O)c2ccc(C(C)(C)C)cc2)(C(F)(F)F)C(C(=O)OC)=C1C (stereo not drawn)
  PMP22 txn: -15%; HTT promoter inh: ?

Screening results deposited in PubChem BioAssay by National Center for Advancing Translational Sciences (NCATS).
